Compound activity deposited in PubChem by National Center for Advancing Translational Sciences (NCATS).
HTT promoter inh: inhibits huntingtin promoter activity; AID 1508623; Potency, µM (titrated, usually from 57.5 µM), without a hit: at the highest dose activity change, negative = inhibition, actives largely listed as inhibitors; 48,000 compounds, 0.93% hits; HEK293 HTT promoter firefly luciferase reporter (activity 0% = vehicle and -100% = no light), 24 h; active = well fitted inhibition curve with a large enough effect; inconclusive = small, poorly fitted or top-dose-only effect; inactive = no such curve, though single readings can be large or run the other way; also: nearly all actives have a fitted effect of over 50% in size
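Firefly luciferase signal from promoter-reporter HEK293 cells was scaled between vehicle (0%) and zero RLU (-100%). Compounds were tested at final concentrations of up to 57.5 uM over 24 h at 37 degrees C. PTC124 at 50 uM final served as control inhibitor.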
PMP22 txn prim: modulates PMP22 transcription in S16 Schwann cells. S16 Pmp22-F2sN Schwann cells (luciferase reporters placed in the Pmp22 gene), FLuc/NLuc coincidence luminescence, 24 h. Potency, µM (doses to about 57.5 µM), for inactives: at the highest dose activity change, negative = inhibition, hits mostly inhibitors. AID 1508649. 43,000 compounds, 2% hits; active = clear falling dose curves in both reporters; inconclusive = both reporters move, but less clearly or upward; inactive = either reporter flat; the % is the NLuc reporter signal; also: % is scaled to controls: 0 for no effect and ±100 for the full control effect; some results filed as inactive show a strong effect at the top dose
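Rat S16 Pmp22-F2sN cells, 500-1,000/well in phenol red-free DMEM + 10% FBS, compound-treated 24 h (37C, 5% CO2). Luminescence: FLuc read, Stop&Glo added, NLuc read.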
An asterisk follows results filed as active; ? = inconclusive; · = no result given; [ ] = dose if it differs, or a comment. Potency is read from the fitted curve at half-maximal effect.

1. O=C1c2oc3ccccc3c(=O)c2C(c2cccc(Br)c2)N1c1ccccn1 (stereo unspecified)
  HTT promoter inh: -16.5% | PMP22 txn prim: 12.9%

2. COC(=O)[C@@H](N)Cc1ccc(O)c(O)c1
  HTT promoter inh: -3.7% | PMP22 txn prim: ·

3. CCOCCCNC(=O)c1ccc(-c2nc(CS(=O)(=O)c3ccccc3)c(C)o2)cc1
  HTT promoter inh: ? | PMP22 txn prim: -6.3%

4. CCOc1ccc(NC(=O)Nc2cccc(C)n2)cc1
  HTT promoter inh: 49.4%[activator] | PMP22 txn prim: ?

5. O=S(=O)(c1ccccc1)c1nc(-c2ccc(F)cc2)oc1N1CCOCC1
  HTT promoter inh: -18.8% | PMP22 txn prim: 19.0%

6. Cc1cc(C)c(OCC(=O)N(Cc2cccc(F)c2)Cc2ccco2)c(C)c1
  HTT promoter inh: -26.9% | PMP22 txn prim: ?

7. Cc1ccc(Cl)cc1N1CCN(C(=O)CN2C(=O)COc3ccc(S(=O)(=O)N4CCCCCC4)cc32)CC1
  HTT promoter inh: -31.3% | PMP22 txn prim: ?

8. COc1ccc(NC(=O)Cn2c(=O)nc(-c3ccccc3)c3ccccc32)cc1OC
  HTT promoter inh: 7.9% | PMP22 txn prim: -19.3%

9. COc1cc(OC)c(NC(=O)COc2ccccc2-c2nnc(-c3ccccc3)o2)cc1Cl
  HTT promoter inh: -24.0% | PMP22 txn prim: 3.1%

10. Cc1ccc(NC(=O)/C(C#N)=C\c2ccc(Cl)cc2Cl)cc1C
  HTT promoter inh: -22.2% | PMP22 txn prim: -11.7%

11. Cc1ccc(NC(=O)CCS(=O)(=O)c2cc3c4c(c2)CCN4C(=O)CC3)c(C)c1
  HTT promoter inh: -11.2% | PMP22 txn prim: 38.6%

12. O=C(N[C@@H](c1ccccc1)[C@@H]1CCCCN1)c1cccc(C(F)(F)F)c1Cl
  HTT promoter inh: ? | PMP22 txn prim: ·

13. COc1cccc2c1Oc1ncccc1N(c1ccc(C(=O)NCc3cccc(C)c3)s1)C2
  HTT promoter inh: ? | PMP22 txn prim: -10.8%

14. Cn1cc(C(=O)NCCc2ccc(Cl)cc2)c(=O)c2cc(S(=O)(=O)N3CCOCC3)ccc21
  HTT promoter inh: 9.4%[11.5 µM] | PMP22 txn prim: 11.6%

15. COc1cccc(NC(=O)CSC2=Nc3ccccc3C3=NC(CC(=O)NCc4cccs4)C(=O)N23)c1 (stereo unspecified)
  HTT promoter inh: -6.1% | PMP22 txn prim: -4.2%

16. O=C(CSC1=Nc2ccccc2C2=NC(CCC(=O)NC3CCCCC3)C(=O)N12)Nc1cccc(C(F)(F)F)c1 (stereo unspecified)
  HTT promoter inh: -30.6% | PMP22 txn prim: ?

17. COc1ccc2cc3cc(C(=O)N4CCN(c5ccccc5F)CC4)oc3nc2c1
  HTT promoter inh: 0.6% | PMP22 txn prim: 34.8%

18. Cc1cc(C)cc(NC(=O)C2CCN(c3nnc(-n4c(C)ccc4C)s3)CC2)c1
  HTT promoter inh: -22.1% | PMP22 txn prim: -16.8%

19. CN(C)CCN(Cc1ccccc1)S(=O)(=O)c1ccc(-c2cc(C(F)(F)F)on2)s1
  HTT promoter inh: ? | PMP22 txn prim: ?

20. Cc1ccc(Nc2c(-c3cccs3)nc3nc(C)cc(C)n23)cc1
  HTT promoter inh: 46.4%[activator] | PMP22 txn prim: -5.4%

21. COc1cccc(CNC(=O)C(=O)NCC(c2cccs2)S(=O)(=O)c2cccs2)c1 (stereo unspecified)
  HTT promoter inh: ? | PMP22 txn prim: -28.0%

22. CCCN(CCC)CCCNC(=O)C1CCN(S(=O)(=O)c2cccc3nsnc23)CC1
  HTT promoter inh: -5.0% | PMP22 txn prim: ?

23. CN(Cc1ccccc1)C(=O)c1ccc(CSc2nc3cccnc3n2Cc2ccccc2)cc1
  HTT promoter inh: ? | PMP22 txn prim: ?

24. COc1cccc2sc(N(Cc3cccnc3)C(=O)c3ccc4c(c3)OCCO4)nc12
  HTT promoter inh: ? | PMP22 txn prim: -108.1%

25. COC(=O)c1cc2oc(C)cc2n1Cc1ccc(Br)cc1F
  HTT promoter inh: 4.1% | PMP22 txn prim: ?

26. COc1ccc(OC)c(CNC(=O)c2nn(C)c3c2CS(=O)(=O)c2ccccc2-3)c1
  HTT promoter inh: -11.5% | PMP22 txn prim: 12.7%

27. Cc1cccc(C(=O)NCC(=O)OCc2cc(=O)n3nc(CC(C)C)sc3n2)c1
  HTT promoter inh: -13.1% | PMP22 txn prim: -24.6%

28. CC(C)CCNC(=O)c1ccc(Cn2c(SCC(=O)NC(C)C)nc3ccccc3c2=O)cc1
  HTT promoter inh: -5.5% | PMP22 txn prim: -33.0%

29. CCOc1ccccc1CN1CCc2nc(Nc3ccc4c(c3)OCCO4)ncc2C1
  HTT promoter inh: -23.9% | PMP22 txn prim: -46.6%

30. CNC(=O)Cn1c(=O)c2cccn2c2ccc(F)cc21
  HTT promoter inh: 7.4% | PMP22 txn prim: 1.5%

31. Cc1cc2nc3c(=O)n(C)c(=O)n(C)c3nc2cc1N=CN(C)C
  HTT promoter inh: 18.9% | PMP22 txn prim: 8.8%

32. Cc1cc2c(cc1C)NC(CC(=O)Nc1cccc(C)c1C)C(=O)N2 (stereo unspecified)
  HTT promoter inh: -9.5% | PMP22 txn prim: ?

33. Cc1cnc(C(=O)O)c[n+]1[O-]
  HTT promoter inh: 3.5% | PMP22 txn prim: ·

34. Cc1ccc(C)c(Cn2c3ccccc3c3cnn(CC(=O)NC(C)c4ccccc4)c(=O)c32)c1 (stereo unspecified)
  HTT promoter inh: 5.9% | PMP22 txn prim: ?

35. Cc1c(C(=O)Nc2ccc(F)c(Cl)c2)oc2ccc(S(=O)(=O)N(C)C3CCCCC3)cc12
  HTT promoter inh: -12.0% | PMP22 txn prim: -1.3%

36. CCCCc1nc(Cl)c(CO)n1Cc1ccc(-c2ccccc2-c2nn[nH]n2)cc1
  HTT promoter inh: 8.3% | PMP22 txn prim: ·

37. Cc1ccc(CNC(=O)CCCn2nc(C)c3c(C)n(-c4ccccc4)nc3c2=O)cc1
  HTT promoter inh: -21.7% | PMP22 txn prim: -17.3%

38. CN1CCN(CCNC(=O)c2cnn(-c3ccc(Cl)cc3)c2C2CCN(C(=O)OC(C)(C)C)CC2)CC1
  HTT promoter inh: -8.2% | PMP22 txn prim: -21.6%

39. O=c1cc2nc(-c3ccccc3)nc(SCc3cccc(Br)c3)n2[nH]1
  HTT promoter inh: -19.3% | PMP22 txn prim: ?

40. COc1ccccc1-c1nnc(SCC(=O)Nc2ccccc2F)o1
  HTT promoter inh: 51.2%[activator] | PMP22 txn prim: 20.7%

A run of entries taken from the entries so far, as a working copy:
23. CN(Cc1ccccc1)C(=O)c1ccc(CSc2nc3cccnc3n2Cc2ccccc2)cc1
  HTT promoter inh: ? | PMP22 txn prim: ?

24. COc1cccc2sc(N(Cc3cccnc3)C(=O)c3ccc4c(c3)OCCO4)nc12
  HTT promoter inh: ? | PMP22 txn prim: -108.1%

25. COC(=O)c1cc2oc(C)cc2n1Cc1ccc(Br)cc1F
  HTT promoter inh: 4.1% | PMP22 txn prim: ?

26. COc1ccc(OC)c(CNC(=O)c2nn(C)c3c2CS(=O)(=O)c2ccccc2-3)c1
  HTT promoter inh: -11.5% | PMP22 txn prim: 12.7%

27. Cc1cccc(C(=O)NCC(=O)OCc2cc(=O)n3nc(CC(C)C)sc3n2)c1
  HTT promoter inh: -13.1% | PMP22 txn prim: -24.6%

28. CC(C)CCNC(=O)c1ccc(Cn2c(SCC(=O)NC(C)C)nc3ccccc3c2=O)cc1
  HTT promoter inh: -5.5% | PMP22 txn prim: -33.0%

29. CCOc1ccccc1CN1CCc2nc(Nc3ccc4c(c3)OCCO4)ncc2C1
  HTT promoter inh: -23.9% | PMP22 txn prim: -46.6%

30. CNC(=O)Cn1c(=O)c2cccn2c2ccc(F)cc21
  HTT promoter inh: 7.4% | PMP22 txn prim: 1.5%

31. Cc1cc2nc3c(=O)n(C)c(=O)n(C)c3nc2cc1N=CN(C)C
  HTT promoter inh: 18.9% | PMP22 txn prim: 8.8%

32. Cc1cc2c(cc1C)NC(CC(=O)Nc1cccc(C)c1C)C(=O)N2 (stereo unspecified)
  HTT promoter inh: -9.5% | PMP22 txn prim: ?

33. Cc1cnc(C(=O)O)c[n+]1[O-]
  HTT promoter inh: 3.5% | PMP22 txn prim: ·

34. Cc1ccc(C)c(Cn2c3ccccc3c3cnn(CC(=O)NC(C)c4ccccc4)c(=O)c32)c1 (stereo unspecified)
  HTT promoter inh: 5.9% | PMP22 txn prim: ?

35. Cc1c(C(=O)Nc2ccc(F)c(Cl)c2)oc2ccc(S(=O)(=O)N(C)C3CCCCC3)cc12
  HTT promoter inh: -12.0% | PMP22 txn prim: -1.3%

36. CCCCc1nc(Cl)c(CO)n1Cc1ccc(-c2ccccc2-c2nn[nH]n2)cc1
  HTT promoter inh: 8.3% | PMP22 txn prim: ·

37. Cc1ccc(CNC(=O)CCCn2nc(C)c3c(C)n(-c4ccccc4)nc3c2=O)cc1
  HTT promoter inh: -21.7% | PMP22 txn prim: -17.3%

Further compounds
41. COc1cc(C(=O)NCCCc2nc3ccccc3n2CC(C)C)cc(OC)c1OC
  HTT promoter inh: -2.3% | PMP22 txn prim: -7.0%

42. Cc1cc2[nH]c(=O)c(=O)[nH]c2cc1S(=O)(=O)Nc1cccc(C(F)(F)F)c1
  HTT promoter inh: -4.3% | PMP22 txn prim: 0.0%

43. COc1ccc2c(CNCc3ccco3)c(C(=O)O)n(Cc3ccc(F)cc3Cl)c2c1
  HTT promoter inh: -11.0% | PMP22 txn prim: -5.5%

44. Cc1ccc(Cl)cc1NC(=O)CCCN1C(=O)CCn2nc(-c3cn(C)c4ccccc34)cc21
  HTT promoter inh: -6.9% | PMP22 txn prim: -10.1%

45. CC1=C(C(=O)Nc2ccccc2)C(c2cccc(O)c2)n2nc(-c3ccccc3Cl)nc2N1 (stereo unspecified)
  HTT promoter inh: -9.7% | PMP22 txn prim: -15.1%

46. NC(=O)N1CCC(CC(=O)N2CCC([C@H]3c4ncc(Br)cc4CCc4cc(Cl)cc(Br)c43)CC2)CC1
  HTT promoter inh: -24.8% | PMP22 txn prim: ·

47. CCN(C(=O)Cn1c(=O)n(Cc2ccc3c(c2)OCO3)c(=O)c2ccc(C(=O)NC3CCCCC3)cc21)c1cccc(C)c1
  HTT promoter inh: -17.1% | PMP22 txn prim: -1.6%

48. COc1cccc(C(=O)Nc2cccc(-c3cn4c(C)csc4n3)c2)c1OC
  HTT promoter inh: 10.3% | PMP22 txn prim: -45.9%

49. Cc1noc(/C=C/c2ccccc2F)c1S(=O)(=O)N1CCC(C(=O)NCc2ccco2)CC1
  HTT promoter inh: ? | PMP22 txn prim: -23.1%

50. Cc1cccc(-c2nc3scc(CCNS(=O)(=O)c4ccc5c(c4)OCCO5)n3n2)c1
  HTT promoter inh: ? | PMP22 txn prim: -20.1%

51. CC(C)c1ccc(N2C(=O)CSC23C(=O)N(C)c2ccccc23)cc1 (stereo unspecified)
  HTT promoter inh: -31.1% | PMP22 txn prim: ?

52. CC(C)NC(=O)c1ccc(Cn2c(=O)c3cccn3c3cccnc32)cc1
  HTT promoter inh: -5.6% | PMP22 txn prim: -7.0%

53. COc1cccc(CNC(=O)CCc2c(C)nn(-c3ccc(N4CCOCC4)nn3)c2C)c1
  HTT promoter inh: 12.9% | PMP22 txn prim: -27.8%

54. COc1ccc(Nc2c3c(nc4ccc(NC(=O)/C=C/c5cccc(OC)c5OC)cc24)CCCC3)cc1OC
  HTT promoter inh: ? | PMP22 txn prim: ?

55. CCCCC(=O)N1CCc2cc(OC)c(OC)cc2C1COc1ccc(OC)cc1 (stereo unspecified)
  HTT promoter inh: -28.2% | PMP22 txn prim: ?

56. COc1ccc(-c2nn3c(=O)cc(CN4CCN(S(=O)(=O)c5ccc(C)cc5)CC4)nc3s2)cc1
  HTT promoter inh: -5.3% | PMP22 txn prim: ?

57. Cc1ccc(Cn2c(SCC(=O)NCc3ccc(Cl)cc3)nc3ccsc3c2=O)cc1
  HTT promoter inh: -8.0% | PMP22 txn prim: ?

58. COc1ccc(C2Nc3ccccc3-c3cc(C)nn32)c(OC)c1 (stereo unspecified)
  HTT promoter inh: -2.1% | PMP22 txn prim: 9.1%

59. CCOc1ccc(-c2cc(C(F)(F)F)c(C#N)c(SCC(=O)Nc3ccccc3)n2)cc1
  HTT promoter inh: -9.5% | PMP22 txn prim: 0.8%

60. COc1ccc(NC(=O)c2nnn(Cc3nc(-c4cc(Br)ccc4OC)oc3C)c2C)cc1
  HTT promoter inh: -6.7% | PMP22 txn prim: ?

61. COc1ccc(CNC(=O)C2CCCN(S(=O)(=O)c3ccc4c(ccn4C)c3)C2)c(OC)c1 (stereo unspecified)
  HTT promoter inh: 0.0% | PMP22 txn prim: ?
